# Assay outcomes (PubChem)
# FPR ligand = human FPR ligands by binding competition, primary screen, cell-based, FPRL1 counter-screen, flow cytometry; inhibition, %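 (tested at 6.7 µM)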; hit rate 0.74% among 24,000; FPR-expressing cells, fluorescent ligand binding; fMet-Leu-Phe receptor (Homo sapiens), P21462; AID 440, 2006;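 also: 0% = buffer wells and 100% = receptor blocker peptide wells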
# Target sequence (P21462 whole entry, looked up): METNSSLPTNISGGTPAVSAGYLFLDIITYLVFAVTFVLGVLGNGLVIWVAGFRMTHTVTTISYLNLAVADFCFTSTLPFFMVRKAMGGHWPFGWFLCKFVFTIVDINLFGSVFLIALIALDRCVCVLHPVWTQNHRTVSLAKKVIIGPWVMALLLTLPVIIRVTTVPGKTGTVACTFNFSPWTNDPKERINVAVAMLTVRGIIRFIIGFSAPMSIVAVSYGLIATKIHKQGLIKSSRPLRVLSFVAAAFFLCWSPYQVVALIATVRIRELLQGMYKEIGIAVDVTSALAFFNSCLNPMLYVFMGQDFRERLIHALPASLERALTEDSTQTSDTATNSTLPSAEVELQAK
# VCAM-1 down = inhibitors of TNFa-induced VCAM-1 surface display, cell-based, plate reader, pooled HUVEC, TNFa stimulus (AID 454). HUVEC TNFa-induced VCAM-1 surface immunofluorescence, plate reader; numbers were filed only for top-ranked candidate wells. inhibition, % at 5 µM. hit rate 0.2% among 10,000;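 active = compound among top-ranked inhibitors of TNF-induced VCAM-1 adhesion protein staining, with the hit upheld by image or statistical review; inactive = the rest, including hits rejected on review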;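 also: 0% = TNFa with vehicle and 100% = cells without TNFa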
# VCAM-1 augmentation = enhancers of VCAM-1 display on endothelial cells, imaging, high-content imaging, pooled HUVEC, TNFa stimulus (AID 457). Pooled HUVEC, TNFa-induced VCAM-1 immunofluorescence imaging; hits of this screen are not shown here. calls only. hit rate 0.2% among 10,000;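 active = a top-ranked rise in VCAM-1 staining upheld on image or statistical review; inactive = the rest, including candidates rejected on review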;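 also: compounds tested at 5 µM in the well; cells exposed to compound for 24 hours before fixing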
# VCAM-1 down imaging = inhibitors of TNFa-induced VCAM-1 surface display, imaging, high-content imaging, pooled HUVEC, TNFa stimulus (AID 456) | HUVEC TNFa-induced VCAM-1 surface expression, immunofluorescence imaging; numbers were filed only for top-ranked candidate wells | hit rate 0.2% among 10,000 | one-dose inhibition, % at 5 µM; IC50 in µM for titrated hits;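 active = top tenth filtered wells with inhibition above zero that passed visual or statistical confirmation; inactive = the rest, including hits rejected on review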;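 also: 0% = stimulated vehicle wells and 100% = unstimulated cells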
# FPRL1 ligand = human FPRL1 ligands by binding competition, primary screen, cell-based, FPR counter-screen, flow cytometry | AID 441, 2006 | N-formyl peptide receptor 2 (Homo sapiens), P25090 | inhibition, %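 (tested at 6.7 µM)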 | FPRL1-expressing cells, fluorescent ligand binding inhibition | hit rate 0.3% among 24,000;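 also: 0% = buffer alone and 100% = receptor blocker peptide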
# Target sequence (P25090 whole entry, looked up): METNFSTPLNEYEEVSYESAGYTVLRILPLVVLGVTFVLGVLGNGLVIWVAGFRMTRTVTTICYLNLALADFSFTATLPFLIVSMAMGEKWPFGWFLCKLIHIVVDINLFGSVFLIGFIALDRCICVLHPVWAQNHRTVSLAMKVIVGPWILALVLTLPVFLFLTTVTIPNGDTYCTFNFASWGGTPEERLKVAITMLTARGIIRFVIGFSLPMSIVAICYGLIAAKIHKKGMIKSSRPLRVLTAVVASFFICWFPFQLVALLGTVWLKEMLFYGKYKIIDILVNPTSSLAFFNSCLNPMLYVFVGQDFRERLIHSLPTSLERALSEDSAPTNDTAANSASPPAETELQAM
# * = called active by the depositor; i = inactive; / = no result given.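 The calls were made as follows, unless noted: active = mean above 30%; inconclusive = self-fluorescent; inactive = the rest.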 An excerpt (hit frequency here may not be typical).
Compound	FPR ligand	VCAM-1 down	VCAM-1 augmentation	VCAM-1 down imaging	FPRL1 ligand
CC(=NCCCN1CCOCC1)c1c(O)n(-c2ccccc2C)c(=O)[nH]c1=O	-2.6	i	i	i	1.6
COC(=NC1CCCC1)C(O)c1c[nH]c2ccccc12 (configuration not stated)	7.6	i	i	i	4.2
CCN1CCC2(CCNC2)C1 (configuration not stated)	-1.8	/	/	/	5.8
C[N+]1(C)[C@@H]2CC(OC(=O)[C@H](CO)c3ccccc3)C[C@H]1[C@@H]1O[C@@H]12 (some centres not stated)	28.0	i	i	i	-0.4
CC(C)C(=O)c1cn(Cc2ccccc2C#N)c2ccccc12	-1.9	i	i	i	-7.6
CCC(=O)N1c2ccc(S(=O)(=O)CCC(=O)N3CCC4(CC3)OCCO4)cc2CC1C (configuration not stated)	-3.7	/	/	/	-1.6
O=P(C(c1c[nH]c2ccccc12)N1CCOCC1)(N1CCOCC1)N1CCOCC1 (configuration not stated)	-6.5	/	/	/	-12.3
CN(C)c1ccc(NC(=O)CN2C(=O)CN=C(c3ccccc3)c3ccccc32)cc1	7.0	/	/	/	5.1
CCn1c(=O)cc(SCC(=O)N2CCC3(CC2)OCCO3)c2ccccc21	-4.4	/	/	/	2.5
Cn1c2ccccc2c2c(C(=O)N3CCC4(CC3)OCCO4)cn(C3CCCCC3)c(=O)c21	-4.1	/	/	/	-1.1
O=c1[nH]c(=O)n(Cc2ccc(F)cc2)c(O)c1C=NCCCN1CCOCC1	-4.9	i	i	i	1.2
Cc1cccc(CS(=O)(=O)Cc2ccc(C(=O)N3CCC4(CC3)OCCO4)o2)c1	-1.8	/	/	/	-5.5
Cc1ccc(C2C(S(C)(=O)=O)=C(O)C(=O)N2c2ccccc2)cc1 (configuration not stated) (tested in a mixture with another compound)	8.4	/	/	/	0.9
Cn1c(O)c(C=NCc2ccco2)c(=O)n(C)c1=O	19.3	i	i	i	7.2
C=CCn1c(O)c(C=NCCN(C)C)c(=O)[nH]c1=O	-6.6	i	i	i	1.2
COc1ccc(OC)c(C(O)C(C)N)c1 (configuration not stated)	-3.2	i	i	i	-2.1
O=C(CNS(=O)(=O)c1ccc(Br)s1)N1CCC2(CC1)OCCO2	1.2	/	/	/	7.7
CN(C)[C@@H]1C(=O)C(C(N)=O)=C(O)[C@@]2(O)C(=O)C3=C(O)c4c(O)cccc4[C@@](C)(O)[C@H]3[C@H](O)[C@@H]12	-4.6	i	i	i	8.0
Cc1ccc(C2CC(=O)C(C=NCCN3CCN(C(=O)Cc4ccccc4)CC3)=C(O)C2)cc1 (configuration not stated)	3.8	/	/	/	-3.7
CC(C)C(=O)N1CCN(CCN=Cc2c(O)n(C)c(=O)n(C)c2=O)CC1	2.3	i	i	i	4.1
O=C(Cn1c(=O)c(C(F)(F)F)nc2ccccc21)N1CCC2(CC1)OCCO2	-2.3	/	/	/	4.1
CCCC(C)(COC(N)=O)COC(=O)NC(C)C (configuration not stated)	-2.6	i	i	i	-3.3
CN1CCC(N(C)c2ncnc3ccc(Br)cc23)CC1	-6.0	i	i	i	1.2
O=C(C(Cc1ccccc1)NS(=O)(=O)c1cccc2nsnc12)N1CCC2(CC1)OCCO2 (configuration not stated)	4.5	/	/	/	-4.9
Cc1ccc(C2N(c3cc(C)on3)C(=O)C3CCCN32)cc1 (configuration not stated)	-0.4	/	/	/	-3.8
CC(C)c1ccc(O)c(CN2CCN(c3ccccc3)CC2)c1	10.2	/	/	/	5.9
CCOC(=O)N(c1ccccc1)P1(=S)OCCO1	-4.7	/	/	/	6.6
CC(C)NS(=O)(=O)c1ccc(OCC(=O)N2CCN(C)CC2)cc1	-4.3	/	/	/	0.7
COCCOC(=O)C1=C(N)Oc2c(c(=O)oc3ccccc23)C1c1ccncc1 (configuration not stated)	1.4	i	i	i	-9.4
Cc1ccc(S(=O)(=O)NC(CC(=O)N2CCC3(CC2)OCCO3)c2ccco2)cc1 (configuration not stated)	6.2	/	/	/	0.6

# Following part.
Compound	FPR ligand	VCAM-1 down	VCAM-1 augmentation	VCAM-1 down imaging	FPRL1 ligand
CC12CN3CC(C)(CN(C1)C31CCSCC1)C2=O	0.0	/	/	/	-9.4
O=C(C1CCC(=O)N1Cc1ccc(F)cc1)N1CCC2(CC1)OCCO2 (configuration not stated)	3.9	/	/	/	8.1
Cn1c(=O)cc(OCC(=O)N2CCN(C3CCCCC3)CC2)c2ccccc21	-2.7	i	i	i	-2.4
CN(C)[C@@H]1C(=O)C(C(N)=O)=C(O)[C@@]2(O)C(=O)C3=C(O)c4c(O)cccc4[C@@](C)(O)[C@H]3C[C@@H]12	0.2	i	i	i	-2.5
CC(C)(C)c1ccc(O)c(CN2CCN(c3ccccc3)CC2)c1	-5.5	/	/	/	-1.4
CCCCOc1ccc(CN2CCN(CCO)CC2)cc1	2.0	i	i	i	4.8
CCCCn1c(O)c(C(C)=NC(Cc2c[nH]c3ccccc23)C(=O)OC)c(=O)[nH]c1=O (configuration not stated)	-20.4	i	i	i	0.7
CCCNC(=O)c1c(N)n(Cc2ccc3c(c2)OCO3)c2nc3ccccc3nc12	-4.2	i	i	i	-2.9
COc1ccc(OC)c([C@@H](O)[C@H](C)NC(C)(C)C)c1	-4.5	i	i	i	-1.1
O=C1CC(N2CC=C(c3ccccc3)CC2)C(=O)N1c1ccc(F)cc1 (configuration not stated)	3.3	/	/	/	-2.3
Cn1c[n+](C)cc1C(O)c1ccccc1 (configuration not stated)	0.3	/	/	/	9.1
O=C(NC(Cc1ccccc1)C(=O)N1CCC2(CC1)OCCO2)C1CCCCC1 (configuration not stated)	-3.5	/	/	/	-1.2
CCOc1ccc(-n2c(O)c(C=NCCN(CC)CC)c(=O)[nH]c2=O)cc1	3.4	i	i	i	2.1
CN1CCN(C(=O)OC2c3nccnc3C(=O)N2c2ccc(Cl)cn2)CC1 (configuration not stated)	0.8	i	i	i	-1.6
CC(=O)OC1C2CCCC1C(N1CCCC1)CC2 (configuration not stated)	4.6	/	/	/	3.3
CCOc1cccc(C2NCc3ccccc3-n3cccc32)c1O (configuration not stated)	4.0	/	/	/	2.4
CCc1ccc(OCCCN=C(C)c2c(O)n(C)c(=O)n(C)c2=O)cc1	1.0	i	i	i	-5.8
O=c1[nH]c(=O)n(Cc2ccccc2)c(O)c1C=NCCCO	-5.3	i	i	i	0.5
COc1ccccc1-n1c(O)c(C=NCc2ccc3c(c2)OCO3)c(=O)[nH]c1=O	-2.6	i	i	i	3.2
Cc1ccc(C)c(C2(O)CC(C)N(C)CC2C)c1 (configuration not stated)	1.7	i	i	i	5.5
O=C(CCc1nc(-c2ccccc2F)no1)N1CCC2(CC1)OCCO2	0.5	/	/	/	-4.3
Clc1ccc(COC(Cn2ccnc2)c2ccc(Cl)cc2Cl)cc1 (configuration not stated)	10.0	i	i	i	9.8
Cc1ccc2c(c1)C1CN(C)CCC1N2C(=O)c1ccc(Br)o1 (configuration not stated)	-0.1	/	/	/	-0.7
Cc1ccc(Cn2c(C)c3cnn(CC(=O)N4CCC5(CC4)OCCO5)c(=O)c3c2C)cc1	4.6	i	i	i	1.3
C=CCOC(=O)C1=C(C)OC(N)=C(C(=O)OCC)C12C(=O)N(CC(N)=O)c1ccccc12 (configuration not stated)	-2.3	/	/	/	3.1
O=C(NCC(c1cccnc1)N1CCN(c2ccccc2F)CC1)Oc1ccccc1 (configuration not stated)	1.3	/	/	/	11.5
Cc1sc2ncn(CC(=O)N3CCC4(CC3)OCCO4)c(=O)c2c1C	-0.2	/	/	/	0.6
O=C1C2CCCN2C(c2cccnc2)N1c1cccc(Cl)c1 (configuration not stated)	2.8	/	/	/	-5.0
COc1cccc(OC)c1C1=NCC(=O)Nc2c1oc1ccc(Br)cc21	-0.1	/	/	/	-6.2
O=C(CCn1c(=O)oc2ccccc21)N1CCC2(CC1)OCCO2	-5.3	/	/	/	1.4

# The listing continues:
Compound	FPR ligand	VCAM-1 down	VCAM-1 augmentation	VCAM-1 down imaging	FPRL1 ligand
NCC1(CC(=O)O)CCCCC1	-5.7	i	i	i	3.8
O=C(NC1CC1)C1CSC(c2cccnc2)=N1 (configuration not stated)	-8.3	/	/	/	1.3
CC(=O)N1CCC2(CC1)CC(=O)c1cc(OCC(=O)N3CCN(C)CC3)ccc1O2	2.0	/	/	/	-1.6
O=C(C1CC(=O)N(C2CCCCC2)C1)N1CCC2(CC1)OCCO2 (configuration not stated)	-6.2	/	/	/	5.2
O=C(Cc1ccccc1)OCn1nnc2ccccc2c1=O	7.3	/	/	/	3.8
O=C1CC[C@@]2(O)[C@H]3Cc4ccc(O)c5c4[C@@]2(CCN3CC2CC2)[C@H]1O5	-3.5	i	i	i	7.2
N=c1c2c(n(Cc3ccc(Cl)cc3Cl)c3c1CCC3)CCCC2	-2.5	/	/	/	3.3
O=C(CCCN1CCC2(CC1)C(=O)NCN2c1ccccc1)c1ccc(F)cc1	5.4	i	i	i	-7.0
O=C(Cn1ncc2ccccc21)N1CCC2(CC1)OCCO2	-10.1	/	/	/	6.6
CCOC(=O)c1c(C)n(Cc2ccccc2)c2ccc(OCC(O)Cn3nc(C)nc3C)cc12 (configuration not stated)	14.4	/	/	/	-9.4
COc1cc(OC)cc(-n2nc(C(=O)N3CCC4(CC3)OCCO4)c3ccccc3c2=O)c1	-3.2	/	/	/	3.9
O=C(CN1CCN(Cc2cccc(Cl)c2)C1=O)N1CCC2(CC1)OCCO2	-3.3	i	i	i	1.9
O=C(c1ccc(CS(=O)(=O)c2ccccc2)o1)N1CCC2(CC1)OCCO2	-8.3	i	i	i	-1.1
C[C@H]1CCCC(=O)CCC/C=C/c2cc(O)cc(O)c2C(=O)O1	-2.6	i	i	i	-3.8
CC(C)C[C@H](NC(=O)[C@@H]1CCCN1C(=O)[C@@H](N)Cc1ccc(O)cc1)C(=O)NCC(N)=O	-5.5	i	i	i	-4.8
O=C(Cn1ncc2c3ccccc3n(Cc3ccccc3F)c2c1=O)N1CCC2(CC1)OCCO2	1.4	/	/	/	-4.2
CN1CCC(OC(=O)C2c3ccccc3Oc3ccccc32)CC1	-8.3	i	i	i	-6.3
CCCC(C)C1C(C#N)=C(N)Oc2c1c(=O)oc1ccccc21 (configuration not stated)	4.3	i	i	i	-5.8
COC1=CC(=O)OC(/C=C/c2ccccc2)C1 (configuration not stated)	-2.0	i	i	i	-0.3
COc1ccc(C(CC(=O)N2CCC3(CC2)OCCO3)NS(=O)(=O)c2ccc(C)cc2)cc1 (configuration not stated)	-0.3	/	/	/	-3.0
Cc1cccc(-n2c(O)c(C=NCCCN3CCOCC3)c(=O)[nH]c2=O)c1C	-7.0	i	i	i	1.2
O=C(CN1CCN(Cc2ccc(Cl)cc2)C1=O)N1CCC2(CC1)OCCO2	0.7	/	/	/	-4.9
Cn1c(C(=O)O)c(CC(=O)N2CCN(Cc3ccccc3)CC2)c2ccccc21	11.4	/	/	/	5.2
Cc1cccc(C2=NCC(=O)N(CC(=O)NCc3ccco3)c3sc4c(c32)CCCC4)c1	8.2	78.7*	i	i	-1.2
O=C1C2CCCN2C(c2cccs2)N1c1ccccn1 (configuration not stated)	-0.3	/	/	/	2.8
C#C[C@]1(O)CC[C@H]2[C@@H]3CCC4=CC(=O)CC[C@]4(C)[C@H]3CC[C@@]21C	3.0	i	i	i	-2.3
O=C(CCS(=O)(=O)c1ccc(Br)cc1)N1CCC2(CC1)OCCO2	-9.3	/	/	/	-3.2
CC(C)CC(NC(=O)C1CCCCC1)C(=O)N1CCC2(CC1)OCCO2 (configuration not stated)	-1.0	/	/	/	-1.4

# Full records as entered above.
# Results for O=C(CCCN1CCC2(CC1)C(=O)NCN2c1ccccc1)c1ccc(F)cc1 = FPR ligand: 5.4; VCAM-1 down: i; VCAM-1 augmentation: i; VCAM-1 down imaging: i; FPRL1 ligand: -7.0
# Results for COc1ccc(C(CC(=O)N2CCC3(CC2)OCCO3)NS(=O)(=O)c2ccc(C)cc2)cc1 (configuration not stated) = FPR ligand: -0.3; VCAM-1 down: /; VCAM-1 augmentation: /; VCAM-1 down imaging: /; FPRL1 ligand: -3.0
